# Assay outcomes: PubChem BioAssay, Southern Research Institute
# motility: Vibrio cholerae motility inhibitors, OD read-out (AID 588778). 10,000 tested, under 10 active. Vibrio cholerae motility, OD read-out; higher % means a stronger effect; test concentration not given here; primary cut-off and reference of the scale not given here; strong numbers were not always called active. inhibition, %; hits with a dose series show IC50 in µg/mL; in the data active = confirmed in a dose series
# motility viability: further read-out of motility, marked with its call; inhibition, %; measured here: bacterial viability at 10 ug/mL;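 higher means fewer living bacteria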
# * = called active by the depositor. Not all compounds are listed; the hit share may differ from the screen's.
no.	SMILES	motility	motility viability
1	Cn1c(=O)n(C)c2cc(S(=O)(=O)O)ccc21	7%	-5
2	O=c1cc(-c2ccccc2)nc(SCCOc2ccc3c(c2)OCO3)[nH]1	-1%	-4
3	CC(C)(C)NS(=O)(=O)c1ccc(NC(=O)Nc2ccc(Cl)cc2)cc1	14%	-1
4	O=C(c1cccc2ccccc12)N1CCN(c2ccc([N+](=O)[O-])c(NCc3ccco3)c2)CC1	-21%	-16
5	O=C(CN1CCN(c2ccccc2F)CC1)Nc1nc(-c2ccccc2)cs1	-8%	-6
6	O=C(CSCc1ccccc1Cl)NNC(=O)c1ccccc1	5%	9
7	CCN(CC)S(=O)(=O)c1cc(C(=O)Nc2ccccc2F)ccc1OC	12%	3
8	Cc1ccc(SC(C)C(=O)NCC2CCCO2)cc1 (centres undefined)	3%	0
9	O=C(Nc1ccc([N+](=O)[O-])cn1)C(Sc1ccccc1)c1ccccc1 (centres undefined)	29%	6
10	C=CCSc1[nH]c(=O)cc(C)c1C(N)=O	1%	-6
11	O=c1ccc2cc(S(=O)(=O)n3cnc4ccccc43)ccc2o1	-7%	-3
12	CC(c1ccccc1C(O)(c1ccccc1)C(F)(F)F)N(C)C (centres undefined)	13%	1
13	O=C(Nc1ccc2c(c1)OCCO2)c1ccc(C(=O)Nc2ccc3c(c2)OCCO3)nc1	-9%	-6
14	CCCc1nc2c(nnn2Cc2ccccc2)c(=O)[nH]1	-1%	-5
15	Cc1c(Br)c(C(F)(F)F)nn1CC(=O)NCCN1CCOCC1	-9%	-5
16	Cc1nn(-c2ccccc2)c(N2CCCCC2)c1C=O	30%	8
17	CCc1cc2c(SCC#N)ncnc2s1	7%	-1
18	O=C1OCCC1Sc1nc(-c2ccccc2)c(-c2ccccc2)o1 (centres undefined)	-3%	0
19	O=C(c1cccs1)c1cn(CCOc2ccccc2F)c2ccccc12	-18%	-11
20	O=C(c1ccc([N+](=O)[O-])cc1)N1CCc2ccccc21	5%	-2
21	CCN1C(=O)Cc2cc(S(N)(=O)=O)ccc21	13%	1
22	CCOC(=O)N1CCC(n2c(SCc3ccc([N+](=O)[O-])cc3)nc3ccccc3c2=O)CC1	-8%	-5
23	COc1cc(/C=N/NC(=O)CCNc2n[nH]c(=O)[nH]c2=O)cc(Br)c1O	-1%	1
24	O=S(=O)(Nn1cnnc1)c1ccccc1	-2%	-2
25	CCOC(=O)c1cc(C(=O)OCC)c(=O)[nH]c1SCc1ccccc1	15%	-1
26	O=C(NCC1(c2ccccc2)CCCC1)C(=O)Nc1ccncc1	-14%	-6
27	O=C(Nc1nncs1)C1CC1c1ccccc1 (centres undefined)	-27%	-15
28	COC(=O)c1c(NC(=O)CN2CCCCC2)sc(Br)c1-c1ccccc1	5%	2
29	C=CCc1ccc(OCc2ccc(C(=O)N3CCc4ccccc43)o2)c(OC)c1	-5%	6
30	COc1ccc2nc(SCC(=O)N3CCc4ccccc4C3)nc(C)c2c1	-9%	3

# Following part.
no.	SMILES	motility	motility viability
31	CC(=O)CC(=O)Nc1ccc(NC(=O)CC(C)=O)c(Cl)c1	13%	4
32	Cc1ccc(N2CC(C(=O)Nc3ncccn3)CC2=O)cc1 (centres undefined)	5%	-2
33	CCCOc1ccc(CC(=N)N)cc1	-13%	-5
34	CCOc1ccc(NC(=S)NC(C)c2cccs2)cc1 (centres undefined)	3%	2
35	N#CC1=C(N)SC(N)=C(C#N)C1c1cc(Br)ccc1F	14%	12
36	CC(=O)Oc1ccc(-c2cccc(C(=O)OC(C)C)c2)cc1	10%	-3
37	Cc1cc(C(=O)NCc2ccco2)no1	36%	8
38	CC12CCC(C(=O)Nc3cc(Cl)ccc3Oc3ccccc3)(OC1=O)C2(C)C (centres undefined)	11%	-3
39	Cc1cc(F)c(F)c(C(=O)n2nnc3ccccc32)c1Cl	2%	-4
40	COc1cccc(NC(=O)CCSc2cc(C)c3ccccc3n2)c1	-14%	0
41	COc1cccc(OC)c1OCCOc1ccc(Br)cc1	3%	6
42	COc1ccc(C(=O)/C=C/Nc2ccc(C(C)=O)cc2)cc1OC	-7%	-11
43	O=C(Nc1nccs1)c1ccc(-c2ccc(Cl)cc2Cl)o1	3%	-3
44	CN(C)Cc1ccccc1C(O)c1ccccc1 (centres undefined)	6%	-1
45	Fc1c(F)c(N2CCOCC2)c(F)c(F)c1-c1ccccc1	-22%	-12
46	COC(=O)Nc1nc2c(s1)CCCC2	0%	5
47	CCCCC(=O)Nc1ccc(NC(=O)C(Cl)(Cl)Cl)cc1OC	3%	-4
48	O=S(=O)(NNC(=S)NCC1CCCO1)c1cc(Cl)ccc1Cl (centres undefined)	13%	0
49	COc1ccc(-c2noc(CSc3nc4ccccc4c(=O)n3-c3ccccc3)n2)cc1	-10%	1
50	CC(=O)Nc1ccc(Oc2nc(C)cc(C)n2)cc1	-21%	-15
51	O=C(CC(c1ccccc1)c1ccccc1)Nc1ccc2c(c1)OCCO2	-12%	-10
52	O=C(c1ccco1)N1CCN(c2ncnc3c2oc2ccccc23)CC1	8%	-1
53	Cc1cc(C)nc(/N=C(/N)N2CCOCC2)n1	18%	8
54	CSc1ccc(Cl)c(C(=O)Nc2ccc(NC(=O)C34CC5CC(CC(C5)C3)C4)cc2)c1	13%	3
55	COc1c2occc2c(OC)c2c(=O)cc(C(F)F)oc12	33%	9
56	O=C(CSc1nccn1Cc1ccccc1)c1ccc(F)cc1	-4%	-3
57	Cc1ccc(NC(=O)COc2ccc(/C=C/[N+](=O)[O-])cc2)cc1	54%	21
58	CCc1ccc(CCC(=O)Nc2ccc(S(=O)(=O)Nc3nccs3)cc2)o1	-4%	-8
59	Cc1ccc2nc(SCCOc3ccccc3C)[nH]c2c1	11%	2
60	Cc1ccc(Cl)cc1N1CCN(C(=S)NCc2ccco2)CC1	12%	11

# (listing goes on)
# Second line of a record: motility	motility viability
61. N#Cc1ccccc1NC(=O)C1CCCO1 (centres undefined)
→ 8%	4
62. Cc1nn2c(C(F)(F)F)cc(-c3ccco3)nc2c1-c1ccccc1
→ -7%	2
63. CCc1ccc(-n2c(C)cc(C=NO)c2C)cc1
→ 32%	13
64. Cc1nnc(SCC(=O)N2c3ccccc3Sc3ccccc32)n1N
→ 8%	2
65. CCOC(=O)Cc1csc(NC(=O)CSc2nc(N)c3c4c(sc3n2)CCCC4)n1
→ 0%	1
66. Cc1ccc(C(=O)Oc2ccc(C(c3cn[nH]c3C)c3c(C)[nH][nH]c3=O)cc2)cc1 (centres undefined)
→ 9%	-3
67. CCN(CC)CCn1cnc2c(=O)oc3ccccc3c21
→ 23%	-6
68. CC1=NN(c2ccc(F)c(Cl)c2)C(=O)C1
→ -6%	2
69. Nc1nc(SCC(=O)NC2CCCCC2)n[nH]1
→ -13%	-7
70. Cc1cc(C(=O)NC(C)C2CCCO2)sc1-c1ccccc1 (centres undefined)
→ 10%	2

# Ordered by molecular weight (smallest number first): 3 of the compounds above
# Second line of a record: motility	motility viability
67. CCN(CC)CCn1cnc2c(=O)oc3ccccc3c21
→ 23%	-6
64. Cc1nnc(SCC(=O)N2c3ccccc3Sc3ccccc32)n1N
→ 8%	2
65. CCOC(=O)Cc1csc(NC(=O)CSc2nc(N)c3c4c(sc3n2)CCCC4)n1
→ 0%	1

# Some of the entries above, set out differently.
62	Cc1nn2c(C(F)(F)F)cc(-c3ccco3)nc2c1-c1ccccc1
63	CCc1ccc(-n2c(C)cc(C=NO)c2C)cc1
64	Cc1nnc(SCC(=O)N2c3ccccc3Sc3ccccc32)n1N
65	CCOC(=O)Cc1csc(NC(=O)CSc2nc(N)c3c4c(sc3n2)CCCC4)n1
66	Cc1ccc(C(=O)Oc2ccc(C(c3cn[nH]c3C)c3c(C)[nH][nH]c3=O)cc2)cc1 (centres undefined)
compound no.	62	63	64	65	66
motility	-7%	32%	8%	0%	9%
motility viability	2	13	2	1	-3

# The list goes on.
# Second line of a record: motility	motility viability
71. COc1cc(Cl)cc(C#N)c1OCC(=O)O
→ 0%	8
72. CCOC(=O)NC(=O)CSc1nc2ccccc2s1
→ 3%	9
73. Cc1cc(Nc2ccccc2O)c2cc(Br)ccc2n1
→ 8%	-3
74. CCCN1C(=O)/C(=C2/C(=O)NC(=S)N2C(C)=O)c2ccccc21
→ 15%	-2
75. O=C(CN1C(=O)c2ccccc2C1=O)N1CCN(C/C=C/c2ccccc2)CC1
→ -3%	-5
76. COc1ccc(OCC(C)=O)c(C#N)c1
→ -1%	-8
77. CCN1C(=O)/C(=C/c2cc(Cl)cc(Cl)c2OCCOc2ccccc2OC)SC1=S
→ 0%	-2
78. CCN(CC)C(=O)CSc1ccccc1N
→ 0%	6
79. Cc1ccc(NC(=O)c2cnccn2)c([N+](=O)[O-])c1
→ -3%	-3
80. O=C(Nc1ccccc1Br)C1CCN(C(=O)c2cccs2)CC1
→ 10%	23

# Other compounds
# Second line of a record: motility	motility viability
81. CC(=O)c1ccc(NC(=S)Nc2ccc(C)cn2)cc1
→ -12%	-9
82. O=C(NNC(=O)C(c1ccccc1)c1ccccc1)c1ccccc1O
→ 7%	-1
83. O=C(NCc1ccccn1)NC1CCCCC1
→ -2%	-4
84. CCOc1ccccc1NC(=O)CSc1c(C)n[nH]c1C
→ -7%	-7
85. Nc1nc(SCC(=O)c2ccc(Cl)cc2Cl)n[nH]1
→ -8%	23
86. Cc1cc(C(C)(C)C)cc(S(=O)(=O)N(C)c2ccccc2C(=O)O)c1C
→ 6%	9
87. O=C(Oc1c(Cl)cc(Cl)c2cccnc12)c1cc(S(=O)(=O)N2CCCCC2)ccc1Cl
→ 84%	95
88. CCN(CC)CCn1c(=N)n(CC(O)COc2ccc(Cl)cc2Cl)c2ccccc21 (centres undefined)
→ 105%	100
89. CCOC(=O)c1cc(OC(=O)c2ccco2)n(-c2ccccc2)n1
→ -1%	-2
90. Cc1ccc(C(C)C)c(OCC(=O)NNC(=S)NCCc2ccccc2)c1
→ -15%	-2

# Record cards, from the list above.
# CCOC(=O)c1cc(OC(=O)c2ccco2)n(-c2ccccc2)n1 is listed with motility = -1%; motility viability = -2
# Nc1nc(SCC(=O)c2ccc(Cl)cc2Cl)n[nH]1 is listed with motility = -8%; motility viability = 23

# Additional entries follow:
# Second line of a record: motility	motility viability
91. COc1ccc(-c2nnn(CC(=O)NC(C)c3ccccc3)n2)cc1 (centres undefined)
→ -17%	-8
92. COc1ccc(CCNC(=S)NNC(=O)C(O)(c2ccccc2)c2ccccc2)cc1OC
→ 4%	-5
93. O=C(Nc1ccc2c(c1)C(=O)N(CC1CCCO1)C2=O)c1ccccc1Br (centres undefined)
→ -6%	-9
94. O=C(Nc1cnc2sccn2c1=O)c1ccc(F)cc1
→ 13%	-6
95. COc1ccc(CCNC(=S)Nc2ncn(Cc3ccc(Cl)c(Cl)c3)n2)cc1OC
→ -19%	6
96. O=S(=O)(Nc1ncccn1)c1ccc(NC(=S)NC2CCCc3ccccc32)cc1 (centres undefined)
→ 7%	0
97. CCCCNC(=O)/C(=C/c1ccc(-c2cccc([N+](=O)[O-])c2)o1)NC(=O)c1ccc(OC)cc1
→ 1%	31
98. O=C(c1ccc(Br)o1)N(c1ccccn1)C1CCCCC1
→ 9%	-2
99. CCCCCNC(=O)C(C)Sc1ccc(Cl)cc1 (centres undefined)
→ 17%	7
100. CCOc1ccc(Cl)cc1C(=O)Nc1ccc(CC(=O)OC)cc1
→ -40%	-11

# Next part.
# Second line of a record: motility	motility viability
101. CCn1c(C)nc2cc(C(F)(F)F)c(Cl)cc21
→ -18%	0
102. O=C(CSc1ncnc2sc3c(c12)CCC3)c1ccc2c(c1)OCO2
→ 10%	2
103. Clc1ccccc1-c1nnc(-c2ccccc2Cl)o1
→ 3%	1
104. Cc1ccc(-c2cc(C(=O)NCc3ccco3)c3ccccc3n2)s1
→ 16%	2
105. O=C(CSc1nnnn1-c1ccccc1)Nc1ccc(S(=O)(=O)Nc2ncccn2)cc1
→ 7%	27
106. O=C(c1ccccc1F)N1CCN(c2ccc([N+](=O)[O-])c(NCC3CCCO3)c2)CC1 (centres undefined)
→ -11%	-9
107. COc1c(F)c(F)c(C(=O)O)c(F)c1F
→ 16%	12
108. O=c1cc(-c2ccccc2)nc(SCc2nc3ccccc3c(=O)[nH]2)[nH]1
→ 32%	4
109. CCC(C(=O)Nc1cc2oc3ccccc3c2cc1OC)c1ccccc1 (centres undefined)
→ 1%	-7
110. O=C(Nc1nc(-c2ccc(Cl)s2)cs1)c1ccccc1
→ -24%	-11

# The results go on.
# Second line of a record: motility	motility viability
111. O=c1ccccn1CCOc1ccc(Br)cc1
→ 23%	12
112. COc1cc2c(cc1NC(=O)C1(C)CC1(Cl)Cl)oc1ccccc12 (centres undefined)
→ -13%	-5
113. CC(=O)N1CCc2cc(S(=O)(=O)Nc3ccn(-c4ccccc4)n3)ccc21
→ -14%	-4
114. CCc1ccc(N=C2NC(=O)CC(C(=O)Nc3cccc(Cl)c3Cl)S2)cc1 (centres undefined)
→ -12%	-8
115. Cc1ccc(CSCC2Nc3ccc(C(=O)O)cc3NC2=O)cc1 (centres undefined)
→ 61%	28
116. O=S(=O)(Nc1cccc(NS(=O)(=O)c2ccccc2)n1)c1ccccc1
→ 8%	0
117. COC(=O)c1cc(OC)c(OC)cc1NC(=O)c1c(-c2ccccc2Cl)noc1C
→ -15%	-3
118. N#CC1=C(N)Oc2n[nH]c(-c3cccc([N+](=O)[O-])c3)c2C12C(=O)Nc1ccccc12 (centres undefined)
→ 6%	36
119. Cn1c(SCc2nc3ccccc3s2)nnc1-c1ccc2c(c1)OCO2
→ -15%	2
120. N#C/C(=C/c1ccc2c(c1)OCO2)c1ccccc1F
→ 13%	4
121. CCC(=O)Oc1ccc2c(C)cc(=O)oc2c1I
→ 14%	2
